High-throughput results from PubChem.
SARS PLP yeast = inhibitors of SARS-CoV papain-like protease in yeast; S. cerevisiae expressing SARS-CoV PLpro, growth rescue; control for the full effect not named in the record; Potency, µM (series often up to 32.9 µM), for inactives: at the top dose activity, positive = growth rescue; 0.19% of 330,000 active; AID 485353; also: 0% is about no effect; nearly all actives have a fitted effect of over 55% in size; growth read by luminescence after 48 h
StopGo reporter = lowers the luciferase signal of an FMDV 2A StopGo reporter; human cells with a luciferase reporter of 2A StopGo recoding; control for the full effect not named in the record; Potency, µM (top dose mostly 57.9 µM), for inactives: at the top dose signal change, negative = less light; 1.2% of 410,000 active; AID 1159524; active = well fitted falling curve with a large enough effect; inconclusive = small, poorly fitted or top-dose-only effect; inactive = no such curve, though single readings can be large or run the other way; tested in HEK293T cells; also: % is scaled to controls: 0 for no effect and ±100 for the full control effect; nearly all actives have a fitted effect of over 45% in size; luciferase light after 4 h
MARV entry inh = inhibitors of Marburg virus binding or cell entry; Marburg virus pseudotyped entry inhibition, cell reporter; control for the full effect not named in the record; about a third of the inactives were read at about 46 µM; Potency, µM (highest dose often 37.8 µM), without a hit: top-dose activity change, negative = inhibition, actives largely listed as inhibitors; 1.8% of 300,000 active; active = well fitted inhibition curve with a large enough effect; inconclusive = small, poorly fitted or top-dose-only effect, or effect the other way; inactive = flat fitted curve, though single readings scatter; tested in HEK293 cells; about a fifth of its hits are not listed in these tables; also: % is scaled to controls: 0 for no effect and ±100 for the full control effect; luciferase read-out
NS1 function inh = inhibitors of influenza NS1 protein function. AID 2326. 0.4% of 270,000 active. Potency, µM (doses to about 46.1 µM), for the others: at the top dose activity, positive = more growth. S. cerevisiae slowed by influenza A NS1, growth recovery by OD600; also: actives are rising curves; nearly all actives have a fitted effect of over 50% in size
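OD600 was taken as the measure of yeast growth restored by compound in an NS1-expressing S. cerevisiae strain. Cells had been washed out of glucose medium and diluted 1:100 into galactose -URA medium, pH 6.0.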
Lassa entry inh = Lassa virus entry inhibition; Lassa virus pseudotype entry inhibition, cell reporter; control for the full effect not named in the record; Potency, µM (highest dose often 37.9 µM), for the others: top-dose activity change, negative = inhibition, hits mostly inhibitors; 1.2% of 300,000 active; active means well fitted inhibition curve with a large enough effect; inconclusive means small, poorly fitted or top-dose-only effect, or effect the other way; inactive means flat fitted curve, though single readings scatter; tested in HEK293 cells; also: % is scaled to controls: 0 for no effect and ±100 for the full control effect; nearly all actives have a fitted effect of over 50% in size; luciferase read-out
Cruzain inh noDet = blocks cruzain activity in detergent-free assay | P25779 | purified cruzain, Z-FR-AMC fluorescence, no detergent | Potency, µM, without a hit: max response, negative = inhibition, hits mostly inhibitors | 2.3% of 200,000 active | AID 1476; active = well fitted curve in the direction sought with a large enough effect; inconclusive = small, poorly fitted or top-dose-only effect, or another doubt; inactive = no such curve, though single readings can be large; an effect the other way counts as inactive or inconclusive;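 also: plate controls were enzyme without inhibitor for no effect and buffer without enzyme for full effect; nearly all actives have a fitted effect of over 40% in size; top concentration of the series not given in the record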
Target sequence (P25779 123-467 limits assumed): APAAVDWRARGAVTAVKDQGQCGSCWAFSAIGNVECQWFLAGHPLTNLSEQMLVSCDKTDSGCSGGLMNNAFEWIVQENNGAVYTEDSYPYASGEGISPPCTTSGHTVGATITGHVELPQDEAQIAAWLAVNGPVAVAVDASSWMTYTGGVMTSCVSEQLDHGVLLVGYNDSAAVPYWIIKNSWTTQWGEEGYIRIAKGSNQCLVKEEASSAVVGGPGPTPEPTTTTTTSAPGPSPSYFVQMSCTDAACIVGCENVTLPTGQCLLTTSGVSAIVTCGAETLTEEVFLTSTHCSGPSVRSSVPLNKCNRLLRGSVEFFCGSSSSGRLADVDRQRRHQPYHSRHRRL
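Detergent-free condition (0.00005% Triton X-100) in acetate buffer pH 5.5 with DTT. 1.5 nM enzyme and compound were pre-mixed 15 min, then 2 uM Z-FR-AMC substrate added; reaction progress from fluorescence change between first and third reads (60 s).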
RE007 growth inh = less growth of the S. pombe RE007 Vpr strain; Potency, µM (titrated, usually from 92.2 µM), inactives show at the top dose activity change, negative = less growth; S. pombe RE007 Vpr strain, BacTiter-Glo ATP luminescence, 24 h; control for the full effect not named in the record; 0.21% of 360,000 active; AID 651644; active = well fitted falling curve with a large enough effect; inconclusive = small, poorly fitted or top-dose-only effect; inactive = no such curve, though single readings can be large or run the other way;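 also: % is scaled to controls: 0 for no effect and ±100 for the full control effect; nearly all actives have a fitted effect of over 50% in size; the assay follows cell death caused by Vpr and the record does not say whether a fall means rescue or toxicity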
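Fission yeast RE007 carrying one integrated HIV-1 vpr copy, seeded at OD 0.01 in PMG+AL medium with 23 nL pinned compound. Grown 24 h at 30 degrees; viability read by BacTiter-Glo luminescence after 5 min.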
Cruzain inh Det = blocks cruzain activity in presence of Triton detergent. P25779. purified cruzain, Z-FR-AMC fluorescence, 0.01% Triton. Potency, µM, for inactives: max response, negative = inhibition, usual class: inhibitors. 0.43% of 200,000 active. AID 1478; active = well fitted curve in the direction sought with a large enough effect; inconclusive = small, poorly fitted or top-dose-only effect, or another doubt; inactive = no such curve, though single readings can be large; an effect the other way counts as inactive or inconclusive;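 also: plate controls were neutral wells for no effect and buffer without enzyme for full effect; nearly all actives have a fitted effect of over 40% in size; top concentration of the series not given in the record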
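Steps: dispense cruzain (1.5 nM final) in acetate buffer pH 5.5 with DTT and 0.01% Triton X-100; pin-transfer compounds; incubate 15 min RT; add Z-FR-AMC (2 uM final); read fluorescence every 30 s, using the 60 s intensity change.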
The depositor's hits bear a star; ? = inconclusive; · = not tested or not shown; [ ] = dose if it differs, or a comment. Unless noted, calls follow the shape of the dose curve; as a rule, active means well fitted rising curve with a large enough effect; inconclusive means small, poorly fitted or top-dose-only effect; inactive means no such curve, though single readings can be large or run the other way. Potency is read from the fitted curve at half-maximal effect.

SMILES	SARS PLP yeast	StopGo reporter	MARV entry inh	NS1 function inh	Lassa entry inh	Cruzain inh noDet	RE007 growth inh	Cruzain inh Det
CCn1cc(CNC(=O)c2ccc(OC3CCN(Cc4ccccn4)CC3)cc2)cn1	3%	?	-1%[46.1 µM]	-11%	?	·	-12%	·
CC1CCCCN1C(=O)Cn1cnc2c1c(=O)n(C)c(=O)n2C (stereo not drawn)	-1%	4%	·	1%	·	·	-8%	·
CC(NC(=O)NC(=O)c1ccc(Cl)cc1Cl)C1CC1 (stereo not drawn)	-3%	38%[activator]	?	·	21%	·	37%	·
COc1ccc(C(=O)NCC(C)(C)N2CCOCC2)cc1S(=O)(=O)N1CCCC1	-1%	0%	-28%	·	10%	·	15%	·
CCN(CC)C(=O)/C(=C/c1cccc([N+](=O)[O-])c1)NC(=O)c1ccco1	9%	25%	-9%[46.1 µM]	·	25%[46.1 µM]	·	5%	·
COc1cc2c(cc1NC(=O)COc1ccc(Br)cc1C)oc1ccccc12	·	·	·	·	·	-10%	·	-0.6%
O=C(O)Cn1cc2c(n1)CCCC2	-2%	-3%	17%	0%	5%	1%	15%	-7.0%
Cc1ccc(NC(=O)C2CCCN2C(=O)Oc2ccccc2)cc1C (stereo not drawn)	9%	-20%	?	-7%	5%	-3%	-6%	-1.3%
COc1c(C(=O)NCCSC(C)(C)C)ccc2ccccc12	-2%	21%	16%	-11%	?	4%	-10%	-2.6%
CCOc1ccc(C(=O)N2CCN(c3ccccc3)CC2)cc1	0%	31%[activator]	?	-4%	4%	·	26%	·
CCOC(=O)c1cccc(NC(=O)CCc2nnc3ccc(N4CCCCC4)nn23)c1	?	-3%	-17%[46.1 µM]	8%	-4%[46.1 µM]	·	10%	·
O=C(CC1C(=O)NCCN1Cc1ccc(F)c(F)c1)NCCCn1ccnc1 (stereo not drawn)	1%	0%	-2%[46.1 µM]	-2%	13%[46.1 µM]	·	-7%	·
O=C(CSc1nnc(COc2ccc(Cl)cc2)o1)N1CCCC1	2%	4%	?	9%	?	·	-14%	·
O=C1CC(N2CCC(c3nc4ccccc4[nH]3)CC2)C(=O)N1c1cccc(F)c1 (stereo not drawn)	-5%	-11%	?	·	17%	·	40µM*	·
COC(=O)c1cn(NC(=O)/C=C/c2cc(OC)ccc2OC)c(=O)c2ccccc12	-3%	-24%	4%	22%	?	4%	-11%	-10%
Fc1cccc(C2NN=C(c3ccccc3)S2)c1 (stereo not drawn)	-12%	-50%	?	17%	?	-1%	-3%	-1.7%
Cc1ccc(C(=O)N2CCN(c3ccc([N+](=O)[O-])cc3)CC2)o1	-2%	-9%	?	-10%	-4%[46.1 µM]	·	-15%	·
CCn1c(CNc2ccc(Cl)cc2)nnc1SCc1ccc(C)cc1	-75%	-24%	-18%	-49%	-13%	9%	6%	-6.3%
CCNC(=O)NC(=O)COC(=O)CCCc1nc2ccccc2s1	-1%	10%	1%	·	28%	·	-12%	·
Brc1cccc(OCCCN2CCCCCC2)c1	0%	?	?	·	-23%[46.1 µM]	·	-19%	·

Some of the entries so far, field by field:
COC(=O)c1cn(NC(=O)/C=C/c2cc(OC)ccc2OC)c(=O)c2ccccc12
  SARS PLP yeast: -3%
  StopGo reporter: -24%
  MARV entry inh: 4%
  NS1 function inh: 22%
  Lassa entry inh: ?
  Cruzain inh noDet: 4%
  RE007 growth inh: -11%
  Cruzain inh Det: -10%

COc1ccc(C(=O)NCC(C)(C)N2CCOCC2)cc1S(=O)(=O)N1CCCC1
  SARS PLP yeast: -1%
  StopGo reporter: 0%
  MARV entry inh: -28%
  NS1 function inh: ·
  Lassa entry inh: 10%
  Cruzain inh noDet: ·
  RE007 growth inh: 15%
  Cruzain inh Det: ·

(more compounds)
SMILES	SARS PLP yeast	StopGo reporter	MARV entry inh	NS1 function inh	Lassa entry inh	Cruzain inh noDet	RE007 growth inh	Cruzain inh Det
CC(C)Sc1nc(N)nc(-c2cccs2)c1C#N	-22%	35%[activator]	?	-28%	14%	-20%	?	-19%
CCN(CC(=O)NC(=O)Nc1ccccc1F)Cc1ccccc1	·	-8%	-11%	·	3%	·	0%	·
COc1ccc(C2c3[nH]c4ccccc4c3CCN2C(=O)Cc2nonc2C)c(F)c1 (stereo not drawn)	-2%	31%[activator]	·	-11%	·	·	2%	·
CCOC(=O)CSc1nnc(CNC(=O)c2cccs2)n1-c1cccc(C)c1	-2%	-19%	-15%	-1%	12%	-4%	-8%	4.1%
O=C(NCCNS(=O)(=O)c1ccc(Cl)cc1)c1cc(OCC(F)(F)F)ccc1OCC(F)(F)F	4%	17%	0%	4%	?	4%	17%	-2.4%
COC(=O)Cn1c(CN2CCC(Cc3ccccc3)CC2)nc2c1c(=O)n(C)c(=O)n2C	11%	·	-16%	?	0%	7%	-7%	1.1%
COC(=O)CCN(c1ccccc1)C(CNS(=O)(=O)c1ccccc1)c1ccccc1 (stereo not drawn)	·	-24%	?	·	?	?	·	1.0%
CC1Cc2cc(S(=O)(=O)CCC(=O)NC3CCCCC3)ccc2N1C(=O)C1CC1 (stereo not drawn)	5%	0%	-18%[46.1 µM]	-4%	?	·	14%	·
CC(=O)Nc1ccc(OCC(O)Cn2c(C(C)C)nc3ccccc32)cc1 (stereo not drawn)	0%	36%[activator]	3%[46.1 µM]	3%	12%[46.1 µM]	·	15%	·
CN(C)S(=O)(=O)c1ccc(C(=O)OCCN=C2NS(=O)(=O)c3ccccc32)cc1	5%	6%	·	-5%	·	·	13%	·
Cc1nc2ccc(NC(=O)c3cnc(Cl)c(Cl)c3)cc2s1	-12%	69%[activator]	17%[46.1 µM]	-9%	?	·	-13%	·
Cc1ccc(NC(=O)CN2C(=O)S/C(=C\c3cc(C)n(-c4ccc(C(=O)O)cc4)c3C)C2=O)cc1	0%	0%	-10%[46.1 µM]	12%	0%[46.1 µM]	·	-14%	·
CS(=O)(=O)c1ccc(C(=O)N(Cc2ccccc2)c2ccccc2)cc1	4%	21%	-3%[46.1 µM]	4%	?	·	-1%	·
CC1(C)CC(CCNC(=O)c2ccc(-n3cnnn3)cc2)CC(C)(C)N1	8%	-2%	11%[46.1 µM]	4%	9%	3%	-7%	1.7%
CC(Sc1nncn1-c1ccccc1)C(=O)Nc1cccc([N+](=O)[O-])c1 (stereo not drawn)	13%	0%	?	23%	0%	-6%	3%	-3.6%
Cc1cc(C)c2nc(SCC(=O)N3CC(=O)Nc4ccccc43)c(C#N)cc2c1	22%	?	?	11%	?	?	12%	-7.6%
Cc1nc([N+](=O)[O-])cn1Cc1cccc([N+](=O)[O-])c1	-1%	-13%	-8%[46.1 µM]	2%	25%[46.1 µM]	·	2%	·
O=C(NCCCN1CCOCC1)C1Cc2c(ccc3ccccc23)O1 (stereo not drawn)	-2%	-16%	-20%	·	5%	·	-1%	·
O=C1CC(N2CCSCC2)C(=O)N1c1cccc(Br)c1 (stereo not drawn)	-18%	8%	-15%[46.1 µM]	·	14%[46.1 µM]	·	32µM*	·
CCOC(=O)C1CCCN(c2cc(NCCCO)c([N+](=O)[O-])c3nonc23)C1 (stereo not drawn)	11%	·	-8%	7%	0%	13%	·	-6.3%
O=C(/C=C/c1ccccc1Cl)Nc1nc(-c2cccs2)ns1	·	21%	5%[46.1 µM]	·	?	?	·	-1.4%
O=C(CCC1CCCCC1)Nc1nnc(C(F)(F)F)s1	2%	?	·	-2%	·	·	-9%	·
CCCN(CCC)C(C)C(=O)NCC1(c2ccccc2)CCCC1 (stereo not drawn)	0%	-27%	·	-3%	·	·	-26%	·
CCn1c(CSCc2ccc(Cl)cc2)n[nH]c1=S	4%	-25%	?	·	-22%[46.1 µM]	·	8%	·
CCn1c(SCC(=O)Nc2cc(C)on2)nnc1-c1cccnc1	2%	0%	1%	0%	13%	-2%	-12%	2.4%
Cc1cc(C[n+]2cc(Cl)ccc2N)c2ncccc2c1	0%	-21%	?	6%	-16%[46.1 µM]	·	-10%	·
CN(C(=O)Nc1ccccc1)C1CCCc2ccccc21 (stereo not drawn)	-1%	56%[activator]	16%[46.1 µM]	-4%	22%	·	-2%	·
O=c1cc2c(nn1Cc1ccccc1)-c1ccccc1CC2	-6%	-16%	-6%[46.1 µM]	·	-2%	·	6%	·
COc1ccc(C)cc1NC(=O)C/C(C)=N/NC(=O)Cc1cccc2ccccc12	-2%	-5%	?	2%	?	·	-1%	·
COc1ccc(NC(=O)CCc2c(C)nn(-c3ccc(N4CCOCC4)nn3)c2C)cc1Cl	·	49%[activator]	·	·	27%[46.1 µM]	13%	·	-4.0%
O=C(/C=C/Nc1ccccc1F)c1ccc(Br)cc1	13%	-62%	?	-17%	?	?	8%	-2.7%
O=C(N/N=C/c1cccs1)c1cncc(Br)c1	-1%	28%	24%[46.1 µM]	·	8%	·	-7%	·
Cc1ccc(N=C(NOCc2ccc(Cl)cc2Cl)c2nonc2N)c(C)c1	-19%	·	?	12%	-15%	-11%	-7%	-0.5%
Cc1ccc(CNC(=O)CN(c2cccc([N+](=O)[O-])c2)S(=O)(=O)c2ccccc2)cc1	-10%	?	?	-7%	-19%	15%	4%	-4.0%
COc1ccc2c(c1)nc(SCC(O)c1ccccc1)n2C (stereo not drawn)	0%	16%	?	-2%	?	·	-6%	·
CCNc1nc(Cl)nc(NC2CCCCC2)n1	1%	39%[activator]	-13%	-13%	24%	·	7%	·
Cc1ccc(N(Cc2cccs2)C(=O)C(C)Oc2ccc(Cl)c(C)c2)cc1 (stereo not drawn)	·	?	?	·	-3%[46.1 µM]	-15%	·	-10%
Nc1nc(C23CC4CC(CC(C4)C2)C3)[nH]c(=O)n1	1%	4%	·	-1%	·	·	1%	·
CCC(C)NC(=O)CO/N=C/c1ccccc1OC(F)F (stereo not drawn)	5%	-23%	-10%	-6%	-13%	2%	17%	0.4%
Cc1c(S(=O)(=O)N2CCN(C(c3ccccc3)c3ccccc3)CC2)c(=O)n(C)c(=O)n1C	4%	-16%	·	-25%	·	?	3%	-4.1%
CCCOC(=O)CSC1=C(C#N)C(c2ccc3c(c2)OCO3)CC(=O)N1 (stereo not drawn)	-2%	0%	?	10%	?	-1%	-2%	-5.0%
